Assay outcomes deposited in PubChem BioAssay by National Center for Advancing Translational Sciences (NCATS).
TSHR ag: activates the human thyroid stimulating hormone receptor; P16473; HEK293-CNG-TSHR cells (CNG channel as cAMP sensor), membrane potential dye, cAMP; Potency, µM (series often up to 57.1 µM), for inactives: top-dose activation, actives largely listed as activators; 0.48% of 73,000 active; AID 926; active = well fitted activation curve of enough size with the parental cells flat; inconclusive = any curve in the parental cells; inactive = parental cells flat and receptor cells flat or falling; also: potency is read from the fitted curve at half-maximal effect; % of control where 0% means no effect; weak receptor curves with flat parental cells got no call and are not listed
Target sequence (P16473 whole entry, looked up): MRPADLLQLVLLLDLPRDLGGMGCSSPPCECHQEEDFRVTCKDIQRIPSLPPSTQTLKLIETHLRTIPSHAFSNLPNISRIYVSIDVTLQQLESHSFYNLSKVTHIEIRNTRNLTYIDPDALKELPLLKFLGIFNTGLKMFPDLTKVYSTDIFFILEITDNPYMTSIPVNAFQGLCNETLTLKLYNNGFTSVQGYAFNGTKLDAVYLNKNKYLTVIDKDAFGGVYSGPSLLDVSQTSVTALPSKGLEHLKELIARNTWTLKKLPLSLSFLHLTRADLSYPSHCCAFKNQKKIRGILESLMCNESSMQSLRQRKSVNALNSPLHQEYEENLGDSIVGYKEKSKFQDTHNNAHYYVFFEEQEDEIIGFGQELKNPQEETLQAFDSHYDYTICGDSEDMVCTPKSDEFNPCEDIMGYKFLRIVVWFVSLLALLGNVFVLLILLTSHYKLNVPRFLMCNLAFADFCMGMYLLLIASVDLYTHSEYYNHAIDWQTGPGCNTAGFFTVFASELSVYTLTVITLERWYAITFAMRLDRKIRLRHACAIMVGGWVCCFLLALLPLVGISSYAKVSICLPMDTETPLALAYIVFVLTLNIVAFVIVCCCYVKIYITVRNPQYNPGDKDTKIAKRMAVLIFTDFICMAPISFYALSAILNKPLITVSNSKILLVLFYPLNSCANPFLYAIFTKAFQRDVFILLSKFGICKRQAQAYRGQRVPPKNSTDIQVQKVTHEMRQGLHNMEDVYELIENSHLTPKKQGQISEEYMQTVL
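HEK 293 cells stably expressing TSHR and a modified CNG channel, with CNG-only parental cells as counterscreen, were preloaded 60 min at room temperature with membrane potential dye containing 100 uM RO 20-1724. Compound exposure was 30 min, and depolarization was read as fluorescence at 590 nm.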
A488 fluor: compound autofluorescence in A488 spectral region; AID 591; 0.1% of 59,000 active; max dye equivalency, M; compound autofluorescence, A488 spectral region, dye equivalency; hits give high values; active = above 10 nM dye equivalent; inconclusive = 1 to 10 nM; inactive = 1 nM or less; about half of its hits are not listed in these tables;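 also: highest value over a series up to 38 µM; compound alone in buffer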
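Compound autofluorescence was read in 100 mM Tris pH 8.0 after 15 min at room temperature, ex 480 nm/em 540 nm. Intensities were converted to A488 dye-equivalent concentration using an on-plate six-point A488 standard curve.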
A647 autofl: compound autofluorescence in A647 spectral region. Compound fluorescence, A647 channel (570/671 nm), Tris buffer. max dye-equivalent concentration, M. 59,000 tested, under 10 active; active means above 1 µM dye equivalent; inconclusive means 0.1 to 1 µM; inactive means 0.1 µM or less;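 also: values scaled relative to a standard on each plate; highest value over a series up to 38 µM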
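Each compound's intrinsic fluorescence at 570 nm excitation and 671 nm emission is measured across its concentration series in 100 mM Tris, pH 8.0, after 15 min at room temperature, and reported relative to an A647 curve.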
Resorufin fluor: compounds fluorescent in resorufin spectral region. max dye-equivalent concentration, M. 0.04% of 59,000 active. AID 588. Compound fluorescence, resorufin region 547/598 nm, buffer; hits give high values; active = above 10 nM dye equivalent; inconclusive = 1 to 10 nM; inactive = 1 nM or less; a few of its hits are not listed in these tables; also: highest value over a series up to 38 µM
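Compounds in 100 mM Tris, pH 8.0, incubated 15 min at room temperature, then fluorescence read at 547 nm excitation/598 nm emission. Signal converted to dye-equivalent concentration via an on-plate six-point resorufin standard curve, per compound concentration.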
AID923: qHTS Assay for Allosteric/Competitive Inhibitors of Caspase-1: Spectroscopic Profiling in AFC Spectral Region. 1.1% of 75,000 active. Potency, µM (doses to about 57.5 µM), for the others: at the highest dose fluorescence increase, usual class: activators. compound fluorescence, AFC spectral region (405/520 nm); almost no hit is shown here; active = well fitted activation curve with a large enough effect; inconclusive = small, poorly fitted or top-dose-only effect;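 also: potency is read from the fitted curve at half-maximal effect; 0% is about no effect; scaled to a free AFC standard on each plate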
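Compound autofluorescence profiled at 405 nm ex/520 nm em during kinetic caspase 1 run (50 nM enzyme, 5 uM Ac-WEHD-AFC, HEPES pH 7.5, 10 mM DTT). Titration up to 57 uM; baseline from regression intercept, normalized to AFC standard curve.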
Numbers without * were called inactive; i = inactive; ? = inconclusive; . = no result given; [ ] = another dose, or the depositor's remark. Only part of the results is shown (hit frequency here may not be typical).

Screens in order: TSHR ag, AID923, A647 autofl, Resorufin fluor, A488 fluor
CCN1C(=O)[C@H]2[C@H]3[C@H](O)[C@H](O)C/C(=N/NC(=O)OCc4ccc(OC)cc4)[C@@H]3CC[C@@H]2C1=O
  -6%[11.4 µM], 2.7%[11.5 µM], ., ., .
CCOC(=O)CN(C(=O)CNC(=O)c1ccco1)C(C(=O)NC1CCCC1)c1ccccc1OCC (centres undefined)
  ?, -2.3%, 3.5e-09, i, i
O=C(CCn1cnc2ccccc2c1=O)Nc1cccc(Cl)c1
  5%, 0.8%, 1e-09, i, i
COc1cccc(N2C(=O)CC(Nc3ccc(N4CCOCC4)cc3)C2=O)c1 (centres undefined)
  -2%, -2.3%, ., ., .
CCOC(=O)N1CCC(n2c(SCC(=O)Nc3nccs3)nc3ccsc3c2=O)CC1
  13%, -0.6%, 2.5e-08, i, i
O=C(NCc1ccc(F)cc1)C1CCN(S(=O)(=O)N2CCCCC2)CC1
  -3%, -1.3%, 2.7e-09, i, i
Cc1ccc(S(=O)(=O)N2CCOCC2)cc1C(=O)N1CCOCC1
  -5%, -1.5%, 3.7e-08, i, i
CC(C)C(=O)Nc1ccc2c(c1)nc1n2CCSC1
  -24%, 3.7%, 1.9e-08, i, i
Cn1cccc1Cc1nnc(SCC(=O)Nc2ccc(F)cc2F)n1-c1ccc(F)cc1
  0%, 1.0%, ., ., .
c1ccc(Nc2nc3ccccc3[nH]2)nc1
  3%, -2.8%, 3.2e-09, i, i
COc1cc(OC)c(/C=C2/C(=O)Nc3ccccc32)c(OC)c1
  15%, 0.8%, 2.4e-08, i, i
N/C(CC(=O)NCCOc1ccccc1)=N\O
  1%, -0.5%, 2.4e-09, i, i
COc1cccc(-c2cc(C(=O)NCc3ccc(Cl)cc3)no2)c1
  3%, 0.6%, 2.2e-08, i, i
O=C(Nc1cccnc1N1CCOCC1)c1cc2ccccc2oc1=O
  -3%, -1.2%, 5e-09, i, i
CN(C)C(=O)c1nnc(Cc2ccc(Cl)cc2)o1
  -2%, -0.5%, ., ., .
Cc1noc(NS(=O)(=O)c2ccc(N3C(=O)c4ccccc4C3=O)cc2)c1C
  0%, -1.5%, 2.3e-08, i, i
O=C(CCCn1c(SCC(=O)NC2CCCC2)nc2ccccc2c1=O)NCC1CCCO1 (centres undefined)
  1%, 0.7%, 2.4e-08, i, i
COC(=O)c1c(-c2ccc(F)cc2)noc1N
  -1%, 0.4%, 3.9e-08, i, i
CCOC(=O)C1(N(CC)CC)Sc2cc(C)ccc2NC1=O (centres undefined)
  ?, -2.6%, 3.4e-08, i, i
CCCn1c(C)nc2c(NC3CCN(Cc4ccccc4)CC3)nc(C)nc21
  15%, 0.2%, ., ., .
COc1ccc(N(C(=O)c2ccco2)S(=O)(=O)c2cccs2)cc1
  ?, -1.1%, 4.6e-09, i, i
NCCNC(=O)c1ncsc1-c1cccc(F)c1
  -20%, 0.5%, 4.8e-09, i, i
O=C(NCc1ccco1)c1cc(-c2ccccn2)nc2ccccc12
  ?, 0.1%, 3.4e-08, i, i
Cc1ccc(NC(=O)CNS(=O)(=O)c2cccs2)cc1F
  1%[11.4 µM], 1.9%, 1e-09, i, i
Cc1cccc(OCCN2CSC(=S)N(C)C2)c1
  ., ., 1e-09, i, i
Cc1[nH]c2ccccc2c1C(=O)CSCC(=O)O
  1%, -0.9%, 1e-09, i, i
Nc1ncnc2c1ncn2CCN1CCOCC1
  0%, -0.7%, 5.2e-08, i, i
CCOC(=O)Cn1c(=O)n(Cc2ccco2)c(=O)c2ccc(C(=O)NCCc3ccccc3)cc21
  ., 2.5%, 1e-09, i, i
CC(C)CO/N=C1/C[C@@H](O)[C@@H](O)[C@@H]2[C@H]3C(=O)N(c4ccc(F)cc4F)C(=O)[C@@H]3CC[C@@H]12
  -8%[11.4 µM], -0.3%[11.5 µM], ., ., .
C=CCN1C(=O)/C(=N/n2cnnc2)c2ccccc21
  3%, 4.5%, ., ., .

Additional results follow:
Screens in order: TSHR ag, AID923, A647 autofl, Resorufin fluor, A488 fluor
Cn1c(-c2ccc3nc(N)sc3c2)nc2cc(N)ccc21
  -6%, 6.5%, 1e-09, i, i
O=C(c1noc2c1CCCCC2)N1CCOCC1
  2%, -1.3%, 1e-09, i, i
COc1ccc(NC(=O)c2nc3nc(C)cc(C(F)F)n3n2)cc1OC
  -2%, -1.0%, ., ., .
O=c1c2c(-c3ccco3)csc2nc(SCc2cn3cccnc3n2)n1-c1ccccc1
  ?, 1.0%, 1e-09, i, i
O=C(Nc1cccc(Cl)c1)Nn1cnnc1
  -3%[11.4 µM], 4.9%[11.5 µM], 1e-09, i, i
NC(=O)C/C=C\CC(N)=O
  4%[11.4 µM], -2.5%[11.5 µM], 1.5e-08, i, i
COc1ccccc1C1C(C#N)=C(N)Oc2cc(C)n(Cc3ccccn3)c(=O)c21 (centres undefined)
  ., ., 1e-09, i, i
Cc1ccc2c(c1)C(=O)[C@@]1(O)CCN(c3ccccc3)C1=N2
  12%, -0.6%, ., ., .
C(=N\n1cnnc1)/c1ccc(OCc2ccccc2)cc1
  ?, -1.6%, ., ., .
CCNC(=O)CN(c1ccc(C)cc1)S(=O)(=O)c1ccc(SC)cc1
  ?, -1.6%, 1e-09, i, i
CCCS(=O)(=O)N1CCC(C(=O)NC2CCC(C)CC2)CC1 (centres undefined)
  -4%, -0.7%, 2.6e-09, i, i
O=C(O)Cc1c(O)ccc2ccccc12
  2%[11.4 µM], 0.6%[11.5 µM], 3.1e-08, i, i
Cc1ccc(CNC(=O)CSc2n[nH]c(N)n2)cc1
  2%, -0.1%, 1e-09, i, i
c1ccc(-n2nnnc2Oc2ccc(-n3ccnc3)cc2)cc1
  6%, 0.2%, 2e-09, i, i
CCN(CC)CCN1C(=O)C(=O)/C(=C(/O)c2c(C)[nH]c(C(=O)OC)c2C)C1c1ccccc1 (centres undefined)
  ., ., 1.9e-08, i, i
Cc1cccc(CNc2nc(-c3cccnc3)nc3ccccc23)c1
  ?, -2.6%, 3.4e-09, i, i
Cc1cc(NC(=O)c2sccc2C)n(-c2cccc(Cl)c2)n1
  26%, -2.8%, 1e-09, i, i
Cc1ccc(-n2ncc3c(=O)n(CC(=O)NC4CCCCC4)cnc32)cc1
  -2%[11.4 µM], -0.4%, 1.6e-08, i, i
CCC1CCCCN1CCNC(=O)CNS(=O)(=O)c1ccc2nc(C)sc2c1 (centres undefined)
  11%[11.4 µM], 3.9%, 1e-09, i, i
CSCC[C@H](NC(=O)NCc1cccs1)C(=O)O
  4%, -1.0%, 3.7e-09, i, i
O=C1CC(c2ccc(Cl)cc2)n2nc(N3C(=O)CCC3=O)nc2N1 (centres undefined)
  -3%, -0.8%, 3.8e-09, i, i
O=C(Nc1ccc2c(c1)OCCO2)c1cc(-n2cnnc2)ccc1Cl
  6%, -1.5%, 1e-09, i, i
CC1(C)CC(=O)C2=C(C1)OC(N)=C(C#N)C2c1ccc(OC(=O)N2CCOCC2)cc1 (centres undefined)
  -10%, -1.2%, ., ., .
CCCn1c(-c2ccc(F)cc2)nc2c(NCCCN3CCOCC3)nc(C)nc21
  ?, 0.8%, ., ., .
O=C(CSc1nc2ccccc2c(=O)n1Cc1ccco1)NCc1ccccc1
  ?, 2.2%, 2e-08, i, i
CC(=O)N1CCC2(CC1)C(C#N)=C(N)Oc1n[nH]c(C(F)(F)F)c12
  ., ., 2.7e-08, i, i
COC(=O)Cn1cnc2c(nnn2-c2ccc(C)cc2)c1=O
  1%, 1.7%, 1e-09, i, i
O=C(c1ccc2c3c(cccc13)CC2)N1CCOCC1
  7%, 0.6%, 2.9e-08, i, i
Cc1nnc(NC2=NCCCCC2)o1
  4%, -4.7%, 2.1e-08, i, i
O=C(NCCC1=CCCCC1)C1CC(=O)N(C2CCCCCC2)C1 (centres undefined)
  11%, -2.6%, 1e-09, i, i

Other compounds:
Screens in order: TSHR ag, AID923, A647 autofl, Resorufin fluor, A488 fluor
CC(=O)c1cc2c(cc1NC(=O)CN1CCOCC1)OCO2
  ?, 0.9%, 2.2e-09, i, i
Cc1ccc(S(=O)(=O)N2CCN(C(=O)CSc3nnc(C)c(=O)[nH]3)CC2)cc1
  -7%, 2.2%, 3.6e-08, i, i
COC(=O)C(C(=O)OC)=C(/C=C/C=C/N(C)C)N(C)C
  -2%[11.4 µM], -1.8%, ., ., .
CCCCn1c(SCC(=O)Nc2nnc(CC)s2)nc2c1c(=O)n(C)c(=O)n2C
  6%, -0.1%, 2.9e-09, i, i
N#CCCSC(=S)[C@H]1CCCC1=N
  ?, 0.9%[11.5 µM], 1e-09, i, i
Cc1ccc(C(=O)NCCN2CCOCC2)cc1Cl
  -2%[11.4 µM], 0.8%, ., ., .
COc1ccc(C)cc1NC(=O)CN1CCN(S(=O)(=O)c2ccc(Cl)cc2)CC1
  ?, -0.7%, 3.3e-08, i, i
CC1=C(C(=O)NC2CCC(C)CC2)C2(CCC(C)CC2)OC1=O (centres undefined)
  11%, 1.6%, ., ., .
O=C(NCCCN1CCCC1)c1cccc(N2CCCC2=O)c1
  -6%, -1.9%, 1e-09, i, i
CSc1nc(N)c2ncn([C@H]3O[C@H](COP(=O)(O)OP(=O)(O)OP(=O)(O)O)[C@@H](O)[C@@H]3O)c2n1
  1%, -2.1%, ., ., .
Cc1cc(C)c2c(N)c(C(=O)c3ccccc3)oc2n1
  ., ., 1e-09, i, i
CCN(c1cccc(C)c1)S(=O)(=O)c1cccc(C(=O)O)c1
  -6%, 0.9%, ., ., .
CCCC(C(=O)NC1CCCC1)N(C(=O)Cn1nnc(-c2ccc(C)o2)n1)C1CCCC1 (centres undefined)
  ?, -0.2%, 5.4e-09, i, i
CCCc1cc(=O)[nH]c(SCC(=O)CSc2nc(CCC)cc(=O)[nH]2)n1
  -1%, -0.2%, 4.3e-09, i, i
Cc1nn(C)c(C)c1NC(=O)CCSc1nc(-c2ccco2)cc(C(F)(F)F)n1
  ?, 0.8%, 1.2e-08, i, i
O=C(O)CC1C(=O)NCCN1CCCc1ccccc1 (centres undefined)
  ?, 0.0%, ., ., .
COc1ccccc1-n1c(SCC(=O)NC(C)(C)C)nnc1-c1ccco1
  -5%, -0.5%, 2.5e-08, i, i
CCOC(=O)N/N=C1/C[C@@H](O)[C@@H](O)[C@@H]2[C@@H]3C(=O)N(C(C)(C)C)C(=O)[C@H]3CC[C@@H]12
  -3%[11.4 µM], 0.2%[11.5 µM], ., ., .
Cc1nc2nc[nH]c2cc1Br
  1%, -0.5%, ., ., .
COC(=O)[C@@H]1CC[C@H](C)[C@@H](c2ccc(C)cc2)N1C(=O)c1ccc(/C=N\OC[C@@H](O)COCc2ccco2)cc1
  17%[11.4 µM], 0.0%[11.5 µM], ., ., .
COCC(=O)N1CCC[C@@]2(CCN(Cc3ccccc3)C2)C1
  ?, 0.1%, 7e-09, i, i
Cc1ccc2cc(C(c3nnnn3C3CCCC3)N3CCN(c4ccc(F)cc4)CC3)c(=O)[nH]c2c1 (centres undefined)
  3%, 5.5%, 4.9e-09, i, i
COc1ccc2cc(C(c3nnnn3Cc3ccccc3)N3CCCCCC3)c(=O)[nH]c2c1 (centres undefined)
  -8%, 18%, 4.2e-08, i, i

Fetched by structure from the list above (three):
Screens in order: TSHR ag, AID923, A647 autofl, Resorufin fluor, A488 fluor
CCN(c1cccc(C)c1)S(=O)(=O)c1cccc(C(=O)O)c1
  -6%, 0.9%, ., ., .
COC(=O)C(C(=O)OC)=C(/C=C/C=C/N(C)C)N(C)C
  -2%[11.4 µM], -1.8%, ., ., .
COc1ccc(C)cc1NC(=O)CN1CCN(S(=O)(=O)c2ccc(Cl)cc2)CC1
  ?, -0.7%, 3.3e-08, i, i
